Screens: PubChem, National Center for Advancing Translational Sciences (NCATS)
Vaccinia mCherry: qHTS for Stage-Specific Inhibitors of Vaccinia Orthopoxvirus: mCherry Reporter Primary qHTS; Vaccinia virus mCherry reporter infection, fluorescence; about a quarter of the inactives have no number; Potency, µM (titrated, usually from 36.5 µM), inactives show at the highest dose activity change, negative = inhibition, most hits filed as inhibitors; actives 0.63% (n = 310,000); active = well fitted inhibition curve with a large enough effect; inconclusive = small, poorly fitted or top-dose-only effect; inactive = no such curve, though single readings can be large or run the other way; tested in A549 cells; further: nearly all actives have a fitted effect of over 35% in size; inactives centre near -10
VACV Venus inh: qHTS for Stage-Specific Inhibitors of Vaccinia Orthopoxvirus: Venus Reporter Primary qHTS; Vaccinia virus Venus reporter expression, fluorescence; Potency, µM (top dose mostly 36.5 µM), without a hit: at the top dose activity change, negative = inhibition, most hits filed as inhibitors; actives 0.46% (n = 330,000); AID 720580, 2013; active means well fitted inhibition curve with a large enough effect; inconclusive means small, poorly fitted or top-dose-only effect; inactive means no such curve, though single readings can be large or run the other way; tested in A549 cells; further: nearly all actives have a fitted effect of over 30% in size; inactives centre near -10
Numbers without * were called inactive; i = inactive; ? = inconclusive; . = no result given; & = joins results of further samples; [ ] = remark or other dose. On the % scale 0 is the no-effect control and ±100 the full control effect; potency means the concentration at half of the fitted maximal effect.

SMILES | Vaccinia mCherry | VACV Venus inh
Cc1ccccc1-n1c(/C=C/c2c(C)n(C)c3ccccc23)nc2ccccc2c1=O | ? | -15.9%
CCOC(=O)c1noc2nc(C)n(CC(=O)Nc3ccccc3F)c(=O)c12 | -13.7% | -11.0%[7.34 µM]
Cc1[nH]nc2c1C(C1CC=CCC1)C(C#N)=C(N)O2 (centres undefined) | . | -13.8%
COc1ccccc1C1CC(=O)Oc2cc(OC)c(OC)c(OC)c21 (centres undefined) | i | -5.2%
COc1ccccc1NC(=S)N1CCN(C/C=C/c2ccccc2)CC1 | -9.1% | -18.2%
CCCN1Cc2cccc(C(=O)Nc3ccc(-c4nc5ccccc5[nH]4)cc3)c2C1=O | -18.3% | -6.4%
CCOc1ccc(-n2c(SCC(=O)N3CCc4ccccc43)nnc2-c2c[nH]c3ccccc23)cc1 | i | 0.2%
O=C(O)CC(c1cccc2ccccc12)n1cccc1 (centres undefined) | -16.3% | -2.8%
O=C(c1ccoc1)N1CCC2(CC1)Oc1ccc(F)cc1C(=O)C21CC(c2ccccc2)=NO1 (centres undefined) | -0.6% | -27.6%
COc1ccccc1NC(=S)NC(=O)C1CC1 | -15.9% | -5.4%
COC(Cn1cc(C)c(=O)[nH]c1=O)OC | -11.1% | -5.1%
Cc1ccc2c(c1)[nH]c1c(=O)n(CCN3CCNCC3)cnc12 | i | -20.1%
CCn1c(CSCc2ccc(Cl)cc2)nnc1SCC(=O)Nc1cccc(C(=O)O)c1 | -18.0% | -15.0%
O=C(CSc1nc(=O)n(Cc2ccco2)c2c1CCC2)NCc1ccc(F)cc1 | -16.3% | -5.5%
Cc1cc(S(=O)(=O)C(CNC(=O)COc2ccccc2)c2cccs2)ccc1F (centres undefined) | i | -18.4%
Cc1cccc(Nc2cc(C)nc3nc(Cc4ccc(Cl)cc4)nn23)c1 | -16.9% | -15.5%
CCc1ccc(NC(=O)CSCc2nc(N)nc(Nc3ccccc3CC)n2)cc1 | -3.2% | -15.3%
COc1ccc(S(=O)(=O)N2C3CCC2CC(NC(=O)NC2CCCCC2)C3)cc1 (centres undefined) | -3.6% | -15.0%
Cc1c(NC(=O)C(C)Oc2ccc(Br)cc2)c(=O)n(-c2ccccc2)n1C (centres undefined) | i | -2.6%
CC1(C(=O)NCCC(F)(F)F)Cc2c(-c3cccc(C(N)=O)c3)ccnc2O1 (centres undefined) | -11.7% | ?
CCOC(=O)C1CCCCN1Cc1ccc(OC)c(OC)c1 (centres undefined) | 2.5% | -1.2%
CC1=C(C)CC(C(=O)N2CCN(C/C=C/c3ccccc3)CC2)C(C(=O)O)C1 (centres undefined) | -14.0% | -5.7%
O=C(C1CCCN(Cc2ccccc2Br)C1)N1CCCCC1 (centres undefined) | -11.0% | -2.8%
OCc1nc2ccccc2[nH]1 | -14.0% | -9.0%
O=C(Nc1cccc(NC(=O)c2cncc(Br)c2)c1)c1cncc(Br)c1 | -12.3% | -24.1%
Carrying on:
SMILES | Vaccinia mCherry | VACV Venus inh
O=C1c2ccccc2NC(c2ccco2)N1O (centres undefined) | . | -8.9%
CC12CCC3c4ccc(O)cc4CCC3C1CCC2=O (centres undefined) | -4.7% | -13.1%
Cc1cccc(NC(=O)COC(=O)c2ccc([N+](=O)[O-])o2)c1C | 3.8% | -5.4%
Cc1ccc(CNS(=O)(=O)c2ccc(Cl)s2)cc1 | -27.5% | -16.7%
CCc1ccc(NSc2ccccc2[N+](=O)[O-])cc1 | ? | ?
CCOC(=O)C1=C(C)N(C)C(C)=C(C(=O)OCC)C1c1ccc(C(=O)OC)cc1 | . | ?
Cc1ccc(OCCN2C(=O)C(=O)c3cc(C)ccc32)cc1 | ? | 3.1%[7.34 µM]
CCn1cc(S(=O)(=O)c2cccc(C)c2)c(=O)c2cc(F)c(N3CCN(c4ccccc4)CC3)cc21 | -7.7% | -20.9%
C/C(=N\NC(=O)c1ccc([N+](=O)[O-])c(C)c1)c1ccccc1Cl | -16.3% | -18.7%
CCN(CC)CCNC(=O)C1CCCCN1S(=O)(=O)c1cccc([N+](=O)[O-])c1 (centres undefined) | -11.3% | -5.3%
O=C(NCCN1CCC(n2c(=O)[nH]c3ccccc32)CC1)c1ccccc1 | -2.3% | -9.5%
CN(C)/C=N/S(=O)(=O)c1ccc(Cl)c(Cl)c1 | -13.8% | 0.3%
COC(=O)[C@@]1(C)[C@H]2C(=O)N(C)C(=O)[C@H]2[C@H]2CN=C(SC)N21 | -4.1% | -15.5%
c1cnc(N2CC[N+]3(CCCC3)CC2)nc1 | -12.7% | -4.1%
Cc1c(C(=O)N2CCN(c3ccccn3)CC2)oc2c(F)cccc12 | i | -7.5%
COc1ccc(-c2nnc3ccc(SC(C(C)=O)C(C)=O)nn23)cc1OC | -5.6% | -5.3%
O=C(NCCOc1ccccc1Cl)c1ncn[nH]1 | i | -4.2%
COc1ccc(N2CCN(C(=O)c3ccc(Nc4nc5ccccc5n5nnnc45)cc3)CC2)cc1 | -6.3% | 3.1%
CCNC(=S)Nc1ccc(NC(=O)c2ccccc2O)cc1 | -6.0% | -11.3%
CC(CNC(=O)CN(C)CC(=O)Nc1ccccc1Br)c1ccccc1 (centres undefined) | -10.8% | -3.0%
CCOC(=O)c1ccc(Oc2nc(C)nc3c2oc2ccccc23)cc1 | -14.2% | -7.3%
O=C(Nc1ncccn1)c1ccc([N+](=O)[O-])cc1 | i | -6.2%
Cc1ccc(C(=O)O)cc1NCc1ccncc1 | i | -18.4%
O=C(O)c1ccc(S(=O)(=O)NC2CCCc3ccccc32)cc1 (centres undefined) | i | -8.2%
N#Cc1ccc(N=c2ssnc2Cl)cc1 | -17.0% | -18.4%&-14.7%
Other entries:
SMILES | Vaccinia mCherry | VACV Venus inh
COc1ccccc1C1Nc2ccccc2-n2c(-c3ccccc3)c3c(=O)n(C)c(=O)n(C)c3c21 (centres undefined) | -7.2% | -15.7%
O=C(NCCc1nc2ccccc2n1Cc1ccccc1F)c1ccc(F)cc1 | -17.6% | -19.8%
O=C1c2ccccc2CCC1CNCCc1ccc(O)cc1 (centres undefined) | i | -11.5%
Cc1ccc(OCCCC(=O)NNC(=O)c2ccccn2)cc1 | ? | ?
CCc1ccc(S(=O)(=O)c2nnn3c2nc(NCCNC(C)=O)c2ccccc23)cc1 | i | -5.2%
O=C(NCc1n[nH]c(=S)n1-c1ccc(Br)cc1)c1ccc(S(=O)(=O)N2CCOCC2)cc1 | i | 5.8%
CC(C)N1CCN(S(=O)(=O)c2ccccc2)c2ccccc21 | ? | 1.1%
Cc1cccc2c1NC(=O)C2=Nc1ccc(Cl)cc1 | ? | -10.4%
FC(F)(F)c1cc(-c2ccccc2)nc(N2CCOCC2)n1 | -25.6% | -21.8%
CCc1ccc(-c2cc(C(=O)NN3CCN(C)CC3)c3ccccc3n2)cc1 | i | -14.2%
O=C(O)CCC(=O)N1N=C(c2c(-c3ccccc3)c3cc(Cl)ccc3[nH]c2=O)CC1c1ccco1 (centres undefined) | -12.7% | -4.4%
CCOC(=O)NC(Nc1cc(C)on1)(C(F)(F)F)C(F)(F)F | . | -11.4%
COc1ccc(CCN(Cc2cc3cc(C)c(C)cc3nc2Cl)C(=O)C2CC2)cc1 | i | -0.7%
COC(=O)Nc1cc([N+](=O)[O-])ccc1OC | i | -11.6%
CN1CCc2cc(O)cc3c2[C@H]1Cc1ccc(O)c(O)c1-3 | ? | -22.1%&-18.3%
O=C(NCCOc1ccc(F)cc1)C1CCC(=O)N(CCc2ccccn2)C1 (centres undefined) | -11.6% | -8.4%
CCn1c(C)c(C(C)=O)c(NCc2ccccc2)nc1=S | -18.9% | -7.7%
CCOC(=O)[C@]12CCCC=C1N(Cc1ccc(Cl)cc1Cl)C(=O)[C@H](CC(=O)NCc1cccc3ccccc13)C2 | -13.7% | -15.7%
Cc1csc(=O)n1CC(=O)OCC(=O)Nc1cc(S(=O)(=O)N2CCOCC2)ccc1Cl | -3.5% | -18.7%
Cn1c(=O)c2c(nc(SCC(=O)Nc3ccccc3)n2C)n(C)c1=O | -15.5% | -10.0%
CC1(C(=O)NCc2ccco2)Cc2c(-c3ccc4c(c3)OCO4)ccnc2O1 (centres undefined) | -8.3% | ?
COc1cccc(CN2C(=O)C3(SCC(=O)N3c3ccc(F)cc3)c3ccccc32)c1 (centres undefined) | -8.6% | -8.5%
CCc1ccc(-c2nc(CS(=O)CC(=O)NCc3cccnc3)c(C)o2)cc1 (centres undefined) | . | -8.4%
CSc1ccc(C2NN=C(c3ccccc3)S2)cc1 (centres undefined) | i | -8.0%
COc1ccc(Br)cc1C1Sc2ccccc2NC2=C1C(=O)c1ccccc12 (centres undefined) | -25.6% | -28.7%
(cont.)
SMILES | Vaccinia mCherry | VACV Venus inh
O=C1c2ccc(Br)cc2C(=O)N1c1ccc(Cc2ccncc2)cc1 | -7.1% | -2.7%
O=C(O)c1ccc(NC(=O)c2cc3c([nH]c2=O)CCCC3=O)cc1 | 33.3%[activator] | -9.1%
CN1CCN(C(=O)CNc2ccc(C(F)(F)F)cc2[N+](=O)[O-])CC1 | -10.8% | -9.1%
O=C(Nc1ccc(S(=O)(=O)N2CCCCC2)cc1)C1CC(=O)N(Cc2ccccc2)C1 (centres undefined) | i | -20.7%
COc1cccc(CNC(=O)C(=O)NCC(c2ccco2)S(=O)(=O)c2ccccc2)c1 (centres undefined) | -10.8% | -13.3%
Cn1c(N=Nc2ccccc2)nc2ccccc21 | i | -4.8%
O=C(CCNC(=O)c1ccccc1Cl)NNC(=O)c1ccccc1O | -3.1% | 2.3%
FC(F)(F)c1n[nH]c(=S)n1/N=C/c1ccco1 | -11.7% | -0.9%
COC(=O)CN(c1cc(OC)ccc1OC)S(=O)(=O)c1ccc(OC)c(OC)c1 | -1.9% | -6.5%
CCCCN1C(=O)C(=O)N(CC(=O)c2ccc[nH]2)C1=O | -1.7% | 0.4%
Cc1sc2ncn(CC(=O)N(C)c3cccc(C(F)(F)F)c3)c(=O)c2c1S(=O)(=O)N1CCN(c2ncccn2)CC1 | -14.1% | -10.6%
Cc1cccc(N=C2NC(=O)/C(=C/C=C/c3ccco3)S2)c1C | -12.8% | 9.4%
COC(=O)c1ccc(Oc2c(F)c(F)nc(N3CCOCC3)c2F)cc1 | -7.3% | -9.2%
O=C(COC(=O)c1cccc(-n2cnnn2)c1)c1ccc(F)cc1 | i | -11.8%
COCCCNC(=O)C1CCN(C(=O)c2cc3sccc3n2Cc2ccc(F)cc2)CC1 | -15.9% | -23.7%
COc1ccc(C(Nc2ccc(S(=O)(=O)NCC3CCCO3)cc2)C(=O)NC(C)(C)C)cc1OC (centres undefined) | 0.3% | 1.2%
Cc1ccc2c(c1)sc1nc(-c3cc4ccccc4oc3=O)cn12 | -1.7% | 0.4%
Cn1nc(-c2ccccc2)c(CSc2ccccc2Cl)c1Cl | . | ?
CCCN(CC(=O)Nc1ccc(C(C)=O)cc1)CC(=O)Nc1ccccc1C | i | -0.2%
O=C(CSc1nc2[nH]ncc2c(=O)[nH]1)Nc1ccc(OC(F)(F)F)cc1 | -12.7% | -17.8%
Cc1ccccc1Cn1c(=O)c2c(nc3n2CCCN3Cc2ccccc2)n(C)c1=O | . | -29.4%
Cc1csc(NC(=O)CSc2ncnc3ccccc23)n1 | -27.2% | ?
COc1ccc(CCn2c(C)cc3c(c2=O)C(c2ccc4c(c2)OCO4)C(C#N)=C(N)O3)cc1OC (centres undefined) | . | -14.9%
CN1CCC2(CC1)Nc1nc(SCc3ccc(Cl)cc3)nn1C1=C2CN(C)CC1 | . | -29.5%
O=C(CCC(=O)N1CCN(c2ccccn2)CC1)Nc1nnc(C(F)(F)F)s1 | -17.0% | 0.5%
CC(C)=NNc1nc2c(c(=O)n(C)c(=O)n2C)n1CCc1ccccc1 | -6.7% | -8.1%
COc1cc(NC(=O)CSc2nc3[nH]ncc3c(=O)n2-c2ccccc2)cc(OC)c1OC | -10.9% | ?
COc1ccc(-c2csc(N(CC3CCCO3)C(=O)c3ccccc3)n2)cc1 (centres undefined) | -16.2% | -18.7%
CN1CCN(C2=Cc3ccccc3Sc3cc(F)ccc32)CC1 | ? | ?
